Compound activity as filed in PubChem.
PrP 5UTR inh: inhibition of PrP 5' UTR reporter expression. cell-based PrP 5' UTR mRNA reporter, plate reader. inhibition, % (no concentration beside the values). 0.35% of 340,000 active. AID 488862;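 active means every replicate at 50% or more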;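 further: 0 = median of the neutral control wells; tested in H4 reporter cells; numbers are from one replicate; inactives centre near -14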
Autofluor counter: compound fluorescence in toxin protease inhibitor counterscreen. compound autofluorescence counterscreen, microsphere flow cytometry; stronger effect = higher value. fluorescence intensity (test concentration not listed). 3.1% of 360,000 active;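 active means at least 3 SD above the mean of all compounds, about 16000 in these data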;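 further: 100 nL of 1 mM stock went into each well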
Sa ugtP lethal: growth inhibition of S. aureus ugtP deletion strain | S. aureus RN4220 ugtP deletion, OD600 growth, 16 h; some inactives read as strong as hits | growth inhibition, % (concentration not given with the values) | 0.54% of 330,000 active | AID 1259309;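 active means z-score under -3 and OD600 up to 0.15 on both plates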;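 further: plate controls were untreated wells for no effect and antibiotic for full effect; wells of about 80 µL received 100 nL stock; the first replicate is given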
Sa RN4220 lethal: kills Staphylococcus aureus RN4220. AID 1259311. 0.33% of 330,000 active. inhibition, % (concentration not given with the values). S. aureus RN4220 growth, OD600, 16 h;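 active means z-score of -3 or lower and OD600 up to 0.18 on both plates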;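 further: plate controls were untreated cells for no effect and reference antibiotic for full effect; stock transfer was 100 nL into about 80 µL; one replicate is shown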
BJeLR lethal: kills HRASV12-expressing BJeLR cells; BJeLR (HRASV12) viability, CellTiter-Glo ATP luminescence, 48 h; reference of the scale not given here; inhibition, % (test concentration not listed); 0.17% of 300,000 active; AID 1554;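 active means replicate mean above 50%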;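 further: 50 nL library stock added to about 25 µL; numbers are from one replicate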
Mtb hypoxia rep: inhibitors of hypoxia-regulated fluorescent reporter in Mycobacterium tuberculosis; M. tuberculosis hypoxia-regulated fluorescent reporter, fluorescence; fluorescence inhibition, % (no concentration beside the values); 0.1% of 300,000 active; AID 1159583;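 active means 35 to 45% if threefold the growth effect, above 45% if 1.5-fold the growth effect; inactive means the rest, general growth blockers included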;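 further: wells of about 50 µL received 100 nL stock; 0% = vehicle wells and 100% = reference inhibitor wells; whole bacteria with a GFP reporter of the hypoxia response; strong numbers were not always called active; many hits fall short of the cut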
Mtb hypoxia rep growth: also measured in Mtb hypoxia rep; calls as there; growth inhibition, %; measured here: M. tuberculosis growth (absorbance);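 0% = vehicle and 100% = reference antibiotic; read after six days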
An asterisk follows results filed as active. This is a random part of the collection; any-hit rate near 4%.

`Cc1oc(-c2cccc(Cl)c2)nc1CS(=O)(=O)CC(=O)NCCN1CCOCC1` gave PrP 5UTR inh -14, Autofluor counter 5832, Sa ugtP lethal -4, Sa RN4220 lethal 3.1, BJeLR lethal 23, Mtb hypoxia rep 2 and Mtb hypoxia rep growth 1.
`CC(C)c1ccc(C=NNC(=O)c2ccccn2)cc1` gave Sa ugtP lethal 14, Sa RN4220 lethal -0.1, Mtb hypoxia rep 3 and Mtb hypoxia rep growth 1.
CCOc1cc(/C=N\NC(=O)c2ccc(NC(=O)CC)cc2)ccc1OC(=O)c1ccccc1 was read as PrP 5UTR inh -12, Autofluor counter 3972 and BJeLR lethal -7.
For NS(=O)(=O)c1ccc(CCNC(=O)C(=O)NCC2OCCN2S(=O)(=O)c2ccc(F)cc2)cc1 (configuration not stated) the results were PrP 5UTR inh -7, Autofluor counter 6745, Sa ugtP lethal 2, Sa RN4220 lethal 2.3, BJeLR lethal 4, Mtb hypoxia rep 11 and Mtb hypoxia rep growth -2.
O=c1[nH]c2ccc(S(=O)(=O)N3CCCCC3)cc2s1 was read as PrP 5UTR inh -27, Autofluor counter 5513, Sa ugtP lethal 32, Sa RN4220 lethal -14, BJeLR lethal -5, Mtb hypoxia rep 15 and Mtb hypoxia rep growth 11.
Screening CC1(C)OC1(C#N)c1ccccc1 (configuration not stated) returned PrP 5UTR inh -17, Autofluor counter 2929, Sa ugtP lethal 6, Sa RN4220 lethal 3.4, Mtb hypoxia rep 7 and Mtb hypoxia rep growth 0.
C/C=C(\C)C(=O)NNC(=O)c1sc(-c2ccccc2)nc1C was read as PrP 5UTR inh -16, Autofluor counter 3834, Sa ugtP lethal -2, Sa RN4220 lethal -0.9, BJeLR lethal -2, Mtb hypoxia rep 0 and Mtb hypoxia rep growth 11.
For NC(=NO)C(c1ccccc1)c1ccccc1 the results were Sa ugtP lethal 4, Sa RN4220 lethal 2.9, Mtb hypoxia rep 11 and Mtb hypoxia rep growth 1.
`COc1ccc(C2Nc3ccccc3NC3=C2C(=O)CC(C)(C)C3)cc1O` (configuration not stated) gave PrP 5UTR inh -3, Autofluor counter 3618, Sa ugtP lethal 3, Sa RN4220 lethal -0.1, BJeLR lethal -13, Mtb hypoxia rep -1 and Mtb hypoxia rep growth -3.
CC(Sc1nnc(-c2ccco2)n1N)C(=O)NCC1CCCO1 (configuration not stated) was read as PrP 5UTR inh -6, Autofluor counter 3108, Sa ugtP lethal 7, Sa RN4220 lethal 4.1, Mtb hypoxia rep 2 and Mtb hypoxia rep growth 0.
CN(C)c1ccc(CNC(=O)C2CCN(S(=O)(=O)c3ccc4c(c3)CCCC(=O)N4)CC2)cc1 was read as PrP 5UTR inh -11, Autofluor counter 6740, Sa ugtP lethal 0, Sa RN4220 lethal 5.6, BJeLR lethal -4, Mtb hypoxia rep 16 and Mtb hypoxia rep growth 7.
`CCCCCOC(=O)CSc1nc2c(c(=O)[nH]c(=O)n2C)n1Cc1ccc(Cl)cc1` gave PrP 5UTR inh -12, Autofluor counter 6639, Sa ugtP lethal 11, Sa RN4220 lethal 3.2, BJeLR lethal -4, Mtb hypoxia rep 6 and Mtb hypoxia rep growth 8.
Screening CC(C)(C)c1ccc(S(=O)(=O)NCc2ccc(C(=O)N3CCCC3)cc2)cc1 returned PrP 5UTR inh -6, Autofluor counter 15631, Sa ugtP lethal 5, Sa RN4220 lethal 4.1, BJeLR lethal -2, Mtb hypoxia rep 8 and Mtb hypoxia rep growth 5.
Screening O=C(CSc1nc2c(c(C(F)(F)F)n1)CCc1ccccc1-2)NCc1ccc(F)cc1 returned PrP 5UTR inh -31, Autofluor counter 9116, Sa ugtP lethal 4, Sa RN4220 lethal 0.1, BJeLR lethal -3, Mtb hypoxia rep 2 and Mtb hypoxia rep growth 6.
`COc1ccc(NC(=O)C2CCCN(S(=O)(=O)c3ccc(Cl)cc3)C2)cc1OC` (configuration not stated) gave PrP 5UTR inh -12, Autofluor counter 5587, Sa ugtP lethal 8, Sa RN4220 lethal 0.5, BJeLR lethal 5, Mtb hypoxia rep 9 and Mtb hypoxia rep growth 15.
O=C(c1ccc(OC2CCN(Cc3ccc(C(F)(F)F)cc3)CC2)cc1)N1CCCCC1 was read as PrP 5UTR inh -11, Autofluor counter 5207, Sa ugtP lethal 6, Sa RN4220 lethal -0.1, BJeLR lethal 9, Mtb hypoxia rep 2 and Mtb hypoxia rep growth 1.
Cc1ccc(S(=O)(=O)N2CCC(C(=O)Nc3nnc(COc4ccccc4)s3)CC2)cc1 was read as PrP 5UTR inh -7, Autofluor counter 8029, Sa ugtP lethal -1, Sa RN4220 lethal 4.4, BJeLR lethal 1, Mtb hypoxia rep 1 and Mtb hypoxia rep growth -4.
`COCCN=c1scc(C)n1N=CC1CC2C=CC1C2` (configuration not stated) gave Sa ugtP lethal 11, Sa RN4220 lethal 9.6, Mtb hypoxia rep 15 and Mtb hypoxia rep growth 13.
CN1C(=O)C2C(C3CC3)N3C(=O)CN(CCO)C(=O)[C@@]3(Cc3ccccc3)C2C1=O (some centres not stated) was read as Sa ugtP lethal 0, Sa RN4220 lethal 1.3, Mtb hypoxia rep 0 and Mtb hypoxia rep growth 7.
Screening Cc1c(OC(C)C(=O)NCCN2CCOCC2)ccc2c(-c3ccccc3)cc(=O)oc12 (configuration not stated) returned PrP 5UTR inh -53, Autofluor counter 5562, Sa ugtP lethal 2, Sa RN4220 lethal 1.2, BJeLR lethal -5, Mtb hypoxia rep 12 and Mtb hypoxia rep growth -2.
`Cc1cc(C(=O)COC(=O)c2ccc(O)cc2)c(C)n1CCc1ccc(F)cc1` gave PrP 5UTR inh -20, Autofluor counter 3759, Sa ugtP lethal 7, Sa RN4220 lethal 9.2, BJeLR lethal 10, Mtb hypoxia rep 14 and Mtb hypoxia rep growth 19.
COc1cc(/C=C/C(=O)Nc2ccc(OC)c(S(=O)(=O)N3CCOCC3)c2)ccc1OCC#N was read as PrP 5UTR inh -7, Autofluor counter 2827, Sa ugtP lethal -5, Sa RN4220 lethal 0.3, Mtb hypoxia rep -2 and Mtb hypoxia rep growth -4.
`O=C(C1CC1)N1CCN(c2ccnc3cc(Cl)ccc23)CC1` gave PrP 5UTR inh -3, Autofluor counter 2506, Sa ugtP lethal -2, Sa RN4220 lethal -1.1, BJeLR lethal -10, Mtb hypoxia rep -2 and Mtb hypoxia rep growth 8.
For CCOC(=O)CSc1nnc(-c2c[nH]c3ccccc23)n1CC the results were PrP 5UTR inh -10, Autofluor counter 6172, Sa ugtP lethal 10, Sa RN4220 lethal 3.2, BJeLR lethal 9, Mtb hypoxia rep 8 and Mtb hypoxia rep growth 5.

No new results follow: entries from further up.
Screening O=C(CSc1nc2c(c(C(F)(F)F)n1)CCc1ccccc1-2)NCc1ccc(F)cc1 returned PrP 5UTR inh -31, Autofluor counter 9116, Sa ugtP lethal 4, Sa RN4220 lethal 0.1, BJeLR lethal -3, Mtb hypoxia rep 2 and Mtb hypoxia rep growth 6.
`COc1ccc(NC(=O)C2CCCN(S(=O)(=O)c3ccc(Cl)cc3)C2)cc1OC` (configuration not stated) gave PrP 5UTR inh -12, Autofluor counter 5587, Sa ugtP lethal 8, Sa RN4220 lethal 0.5, BJeLR lethal 5, Mtb hypoxia rep 9 and Mtb hypoxia rep growth 15.

The results go on:
For CCOC(=O)/C(C#N)=N/Nc1ccccc1C#N the results were PrP 5UTR inh -13, Autofluor counter 3369 and BJeLR lethal 0.
For COc1ccc(NC(=O)CSc2nnc(-c3ccncc3)n2CC2CCCO2)c(OC)c1 (configuration not stated) the results were PrP 5UTR inh -7, Autofluor counter 2924, Sa ugtP lethal 5, Sa RN4220 lethal 4.6, BJeLR lethal -14, Mtb hypoxia rep 4 and Mtb hypoxia rep growth 6.
Screening Cc1cccc(NC(=O)C2CCCN(c3ncnc4c3nc3n4CCCCC3)C2)n1 (configuration not stated) returned PrP 5UTR inh -5, Autofluor counter 5185, Sa ugtP lethal 1, Sa RN4220 lethal -6.5, BJeLR lethal 7, Mtb hypoxia rep 12 and Mtb hypoxia rep growth 9.
CCCC(CNC(CNC)C(C)O)NCCc1ccc(OC)cc1 (configuration not stated) was read as Sa ugtP lethal -8, Sa RN4220 lethal 5.6, Mtb hypoxia rep -3 and Mtb hypoxia rep growth 2.
For COc1ccc(CCNC(=O)CCC(=O)NC2CCCC(C)C2C)cc1OC (configuration not stated) the results were PrP 5UTR inh -7, Autofluor counter 4297, Sa ugtP lethal 1, Sa RN4220 lethal 1.8, BJeLR lethal -7, Mtb hypoxia rep 9 and Mtb hypoxia rep growth 4.
For C=CCNC(=O)c1ccc(N(Cc2ccc(Cl)cc2)S(C)(=O)=O)cc1 the results were PrP 5UTR inh -19, Autofluor counter 3005, Sa ugtP lethal 8, Sa RN4220 lethal 2.9, BJeLR lethal -5, Mtb hypoxia rep 3 and Mtb hypoxia rep growth 9.
`CCC(C)[C@H]1CNCCN1CCc1cccc2ccccc12` (some centres not stated) gave PrP 5UTR inh -9, Autofluor counter 3221 and BJeLR lethal -8.
For COc1ccc(OC)c(NC(=O)c2ccc(CN3CCOCC3)cc2)c1 the results were PrP 5UTR inh -19, Autofluor counter 2813, Sa ugtP lethal -3, Sa RN4220 lethal 0.5, BJeLR lethal -6, Mtb hypoxia rep -10 and Mtb hypoxia rep growth 5.
Screening Cc1ccc2[nH]c(C(=O)NCCN3CCCC3)cc2c1 returned PrP 5UTR inh -1, Autofluor counter 3961, Sa ugtP lethal 4, Sa RN4220 lethal 3.3, BJeLR lethal 3, Mtb hypoxia rep -8 and Mtb hypoxia rep growth 4.
COc1ccc(S(=O)(=O)NC(C)C(=O)NC2CC2)cc1C (configuration not stated) was read as PrP 5UTR inh -18, Autofluor counter 6365, Sa ugtP lethal 5, Sa RN4220 lethal 0.8, BJeLR lethal 4, Mtb hypoxia rep 5 and Mtb hypoxia rep growth -11.
Screening COCCOc1ccc(C(F)(F)F)cc1NC(=O)c1ccccc1 returned PrP 5UTR inh -10, Autofluor counter 2562 and BJeLR lethal -3.
For COC(=O)c1n[nH]nc1-c1ccccc1 the results were PrP 5UTR inh 7, Autofluor counter 2119, Sa ugtP lethal 2, Sa RN4220 lethal 1.8, BJeLR lethal 2, Mtb hypoxia rep 6 and Mtb hypoxia rep growth 12.
For NS(=O)(=O)c1ccc(CCNCc2cc(Cl)ccc2OCc2ccccc2)cc1 the results were PrP 5UTR inh -10, Autofluor counter 4100, Sa ugtP lethal 5, Sa RN4220 lethal -0.4, BJeLR lethal -2, Mtb hypoxia rep 0 and Mtb hypoxia rep growth -5.
Screening Cn1ccnc1Sc1nc(Nc2cccc(Cl)c2)nc(N2CCOCC2)n1 returned PrP 5UTR inh -2, Autofluor counter 22665*, Sa ugtP lethal -4, Sa RN4220 lethal 2.5, BJeLR lethal 10, Mtb hypoxia rep -8 and Mtb hypoxia rep growth 7.
`O=c1cnc2ccccc2n1Cc1ccc(Br)cc1` gave PrP 5UTR inh -15, Autofluor counter 3145, Sa ugtP lethal -11, Sa RN4220 lethal 1.9, BJeLR lethal -7, Mtb hypoxia rep -8 and Mtb hypoxia rep growth -1.
For CCCCC12CNCC(C)(CNC1)C2=O the results were PrP 5UTR inh 1, Autofluor counter 8244, Sa ugtP lethal 7, Sa RN4220 lethal 1.9, BJeLR lethal 5, Mtb hypoxia rep 3 and Mtb hypoxia rep growth 8.
`COc1ccccc1OCCC(=O)Nc1cccc(S(=O)(=O)N2CCOCC2)c1` gave PrP 5UTR inh -23, Autofluor counter 5793, Sa ugtP lethal 4, Sa RN4220 lethal 2.8, Mtb hypoxia rep 3 and Mtb hypoxia rep growth -1.
`CC(C(=O)Nc1ccc2ccccc2c1)C1C[C@@]1(C)C(N)c1ccccc1` (some centres not stated) gave Sa ugtP lethal -10, Sa RN4220 lethal -1.5, Mtb hypoxia rep 12 and Mtb hypoxia rep growth -1.
COc1cc(OC)c(NC(=S)Nc2cccc(C(C)=O)c2)cc1Cl was read as PrP 5UTR inh -9, Autofluor counter 2551, Sa ugtP lethal -2, Sa RN4220 lethal 13, BJeLR lethal 0, Mtb hypoxia rep 10 and Mtb hypoxia rep growth 6.
Screening COc1ccc(NC(=O)C=Cc2ccc(Br)o2)cn1 returned Sa ugtP lethal -2, Sa RN4220 lethal 6.1, Mtb hypoxia rep 9 and Mtb hypoxia rep growth 9.
Cc1ccc(S(=O)(=O)N2CCCN(S(=O)(=O)c3ccccc3Br)CC2)cc1 was read as PrP 5UTR inh -20, Autofluor counter 3441, Sa ugtP lethal 5, Sa RN4220 lethal 4.1, Mtb hypoxia rep -2 and Mtb hypoxia rep growth 4.
